Source: PubChem BioAssay (National Center for Advancing Translational Sciences (NCATS))
PK Bst: Pyruvate Kinase | partly purified Bacillus stearothermophilus pyruvate kinase, luminescence ATP production; ribose 5-phosphate activator present at AC10 | Potency, µM | AID 361, 2006 | hit rate 1.2% among 51,000; in the data active means potency below about 11 µM; inconclusive means mostly about 12 µM to 25 µM; inactive means weaker than that;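 the screen sought inhibitors and activators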;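 note: potency is the fitted concentration of half-maximal effect; scaled between full activation by ribose 5 phosphate and full inhibition by luteolin; about four in five hits inhibit and the cells do not say which; series up to 57 µM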
YjeE inh: qHTS Assay for Inhibitors of YjeE; hit rate 0.05% among 71,000; purified YjeE, fluorescence polarisation of a bound ADP probe; AID 605, 2007; tRNA threonylcarbamoyladenosine biosynthesis protein TsaE (Escherichia coli (strain …; Potency, µM; active = well fitted falling curve; inconclusive = weaker or top-dose-only fall, or a rising curve; inactive = flat or poorly fitted curve;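 note: top concentration of the series not given in the record; excess ADP was the control for the full effect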
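Purified YjeE (10 uM) with BODIPY Texas Red-labeled ADP probe (2 uM); compounds pin-transferred, 15 min at room temperature. Binding inhibition read as decreased fluorescence polarization; ADP titration as control.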
An asterisk follows results filed as active; i = inactive; ? = inconclusive; · = not tested or not shown. Some of the compounds tested, so the mix of outcomes need not match the whole.

Sample of the layout, 3 compounds:
PK Bst,YjeE inh,canonical_smiles
>57,i,CCCCOC(=O)C(C)Nc1n[nH]c(=O)[nH]c1=O (centres undefined)
>57,i,Cc1sc2ncn(CCC(=O)O)c(=O)c2c1C
>57,i,Cc1ccc(OCc2nnc(SCCN3CCOCC3)n2C)cc1

All compounds of this part, previewed entries included:
PK Bst,YjeE inh,canonical_smiles
>57,i,CCCCOC(=O)C(C)Nc1n[nH]c(=O)[nH]c1=O (centres undefined)
>57,i,Cc1sc2ncn(CCC(=O)O)c(=O)c2c1C
>57,i,Cc1ccc(OCc2nnc(SCCN3CCOCC3)n2C)cc1
·,i,COc1ccc(OC)c(NC(=O)CSc2nnc(Cn3c(=O)sc4ccccc43)n2C)c1
>57,i,CCOC(=O)/C(C(N)=NCCO)=C(/O)c1ccccc1
>57,i,CS(=O)(=O)N(CC(=O)NC1CCCCCC1)Cc1ccccc1
>57,i,Cc1cc(=O)oc(C)c1C(=O)NCCCN1C(C)CCCC1C (centres undefined)
>57,i,Cc1nnc(SCC(=O)NC(=O)NC(C)(C)C)n1N
>57,i,NC(=O)c1c(NC(=O)CN2CCCC2)sc2c1CCCC2
·,i,Cc1ccc(C(C)(C)C)cc1
>57,i,Cn1c(=O)oc2cc(S(=O)(=O)NCCC(=O)N3CCc4ccccc4C3)ccc21
>57,i,COc1ccc(-c2ccc(-c3noc(-c4ccccc4OC)n3)c(OC)n2)cc1
>57,i,O=C(c1ccco1)N1CCC(n2nnc3ccccc32)CC1
>57,i,O=C(CSc1ccccc1Cl)c1ccco1
>57,i,CCN(CC)CCCNc1oc(-c2cccc(Cl)c2)nc1C#N
·,i,CC1=C(C(=O)OCC(C)C)C(c2cc3c(cc2Br)OCO3)NC(=O)N1C (centres undefined)
>57,i,CCOc1ccccc1N(C(=O)CNC(=O)c1ccco1)C(C(=O)NC(C)(C)C)c1ccncc1 (centres undefined)
·,i,CC(=O)CC(=O)[C@@]1(O)CC[C@@H]2[C@@H]3C=C(C)C4=CC(=O)CC[C@@H]4[C@H]3CC[C@]21C
>57,i,CCOC(=O)N1CCC(NC(=O)Cn2ncn3c(cc4sc(CC)cc43)c2=O)CC1
·,i,C[C@H]1[C@H](NC(=O)/C(=N/OC(C)(C)C(=O)O)c2csc(N)n2)C(=O)N1S(=O)(=O)O (stereo in doubt)
·,i,CCCn1c(C2CC(=O)N(c3cc(OC)ccc3OC)C2)nc2ccccc21 (centres undefined)
>57,i,CC1CCCCN1S(=O)(=O)c1ccc(C(=O)Nc2nnc(-c3ccccc3Cl)o2)cc1 (centres undefined)
·,i,O=C(C1COc2ccccc2O1)N1CCCC1 (centres undefined)
>57,i,Cc1cccc2cc3c(NC(=O)CC(C)C)nn(C)c3nc12
>57,i,COc1ccccc1NC(=O)CSc1nnc(CC(=O)Nc2ccccc2)n1C
·,i,CCOC(=O)Cn1c(-c2nonc2NC(=O)c2ccccc2F)nc2ccccc21
>57,i,O=C(Cn1c(N2CCN(c3ccccc3)CC2)nc2ccccc21)c1ccccc1
>57,i,CCOC(=O)C(NC(=O)c1ccccc1OCC)(Nc1ncccn1)C(F)(F)F (centres undefined)
·,i,CCCc1nc2c(o1)CC(CC(C)SCC)CC2=O (centres undefined)
>57,i,CC(C)NC(=O)C1CCN(C(=O)N(C)C)CC1
>57,i,CCOc1c(C#N)c(C#N)c2nc(C)cc(C)n12
>57,i,COc1ccc(NC(=O)CC(=O)Nc2ccc(OC)cc2OC)c(OC)c1
>57,i,CCS(=O)(=O)n1nc(-c2ccc(OC)cc2)nc1SC
·,i,COc1ccc(CNc2ncncc2-c2cccc(C#N)c2)c(OC)c1
>57,i,CCn1c(SCC(=O)N2CCCc3ccccc32)nnc1-c1c[nH]c2ccccc12
>57,i,O=C(O)CC1CCCC(c2ccccc2)C1=O (centres undefined)
·,i,COc1cccc(Nc2ncc3nc(-c4ccc(F)cc4)c(=O)n(C)c3n2)c1
>57,i,O=C1[C@H]2[C@@H](C(=O)N1c1cc(Cl)cc(Cl)c1)[C@]1(C(=O)Nc3ccccc31)N1CCC[C@@H]21
>26,·,N#Cc1c(N2CCOCC2)nc(-c2ccco2)c2c1CCCC2
>57,i,O=C(C1CCN(c2nnc(-n3cccc3)s2)CC1)N1CCN(c2cccc(C(F)(F)F)c2)CC1
>57,i,COc1ccc(OC)c(-c2cc(C(=O)NCc3cccs3)no2)c1
>57,i,COc1ccccc1CN(Cc1cc2cc(C)ccc2[nH]c1=O)Cc1nnnn1CC1CCCO1 (centres undefined)
>57,i,O=C(Cc1cc(=O)oc2cc(O)ccc12)NCC1CCC(C(=O)O)CC1 (centres undefined)
>57,i,COC(=O)c1ccc(NC(=O)C2CCN(S(C)(=O)=O)CC2)cc1
>57,i,Cc1cnc(-c2nnc(N(C)C(=O)c3ccccn3)s2)cn1
>57,i,CC1(C)Cc2noc(N)c2C(C)(C)N1OC(=O)c1ccco1
>57,i,CCOC(=O)C1=C(C)NC2=C(C(=O)CC(C)(C)C2)C1c1ccc2c(c1)CCCN2C (centres undefined)
·,i,CCN(CC)c1ccc(N)cc1
>57,i,COc1cccc(OC)c1C(=O)Nc1ccc(NC(=O)c2ccco2)cc1
>57,i,CC(Sc1nnc2ccccn12)C(=O)Nc1ccc(Cl)cn1 (centres undefined)
·,i,CCN1CCN(CC(=O)Nc2ccc3c(c2)OCO3)C(=O)C1=O
·,i,Cc1ccc(C2CC(c3cccc(C)c3)n3ncnc3N2)cc1 (centres undefined)
·,i,CNc1nc(-c2ccc(N(C)C)cc2)nc2ccccc12
·,i,c1ccc2c(c1)ncc1cccn12
·,i,CC(C)c1ccc(NC(=O)C(c2ccccc2)N2CCOCC2)cc1 (centres undefined)
·,i,COc1cc(-c2cc(=O)c3ccccc3o2)ccc1O
>57,i,O=C(CSc1nnc(-c2ccncc2)o1)Nc1ccccc1Cl
·,i,CCCCSc1cc(C)nc2ncnn12
>57,i,C=C(C)Cn1c(CCCNC(=O)C(C)(C)C)nc2ccccc21
>57,i,CCOC(=O)N1CCN(S(=O)(=O)N(C)C)CC1

One compound at a time (already shown):
Results for `COC(=O)c1ccc(NC(=O)C2CCN(S(C)(=O)=O)CC2)cc1` → PK Bst: >57; YjeE inh: i
Results for `c1ccc2c(c1)ncc1cccn12` → PK Bst: ·; YjeE inh: i

The listing picks up; the 6 compounds before the break are reprinted first.
PK Bst,YjeE inh,canonical_smiles
·,i,CC(C)c1ccc(NC(=O)C(c2ccccc2)N2CCOCC2)cc1 (centres undefined)
·,i,COc1cc(-c2cc(=O)c3ccccc3o2)ccc1O
>57,i,O=C(CSc1nnc(-c2ccncc2)o1)Nc1ccccc1Cl
·,i,CCCCSc1cc(C)nc2ncnn12
>57,i,C=C(C)Cn1c(CCCNC(=O)C(C)(C)C)nc2ccccc21
>57,i,CCOC(=O)N1CCN(S(=O)(=O)N(C)C)CC1
>57,i,OC(COCc1ccccc1)CN1CCN(c2ccccc2)CC1 (centres undefined)
>57,i,Cc1ccc(N2CCCn3c2nc2c3c(=O)n(CCN3CCOCC3)c(=O)n2C)cc1
>57,i,CN1C(=O)CC2(CC(=O)N(Cc3ccccc3)C2)C1=O (centres undefined)
>57,i,Cc1ccc(NC(=O)N2CCC(NC(=O)c3ccccc3C)CC2)cc1
>57,i,Cc1nnc(N2CCN(Cc3ccccc3)CC2)[nH]c1=O
>57,i,c1cc2c(cc1Oc1nc(N3CCOCC3)nc(N3CCOCC3)n1)OCO2
·,i,Cc1onc(-c2ccccc2)c1C(=O)Nc1c(C)n(C)n(-c2ccccc2)c1=O
·,i,CC(=NC1CCCCC1)C1=C(O)c2ccccc2C1=O
·,i,CCN[C@@H]1C[C@H](C)S(=O)(=O)c2sc(S(N)(=O)=O)cc21
>57,i,CN1CCN(CC(=O)C23CC4CC(CC(C4)C2)C3)CC1
>57,i,Cc1nc2cc(S(=O)(=O)N(C)C)ccc2n1-c1ccccc1
>57,i,COC(=O)CNC(=O)c1c(-c2ccccc2Cl)noc1C
>57,i,CCC(C)NC(=O)CCS(=O)(=O)c1ccc(Br)s1 (centres undefined)
·,i,O=c1c(-c2ccc(Cl)cc2)nc2cnc(N3CCNCC3)nc2n1Cc1cccs1
>57,i,Cc1cc(C)nc(SCNC(=O)c2ccc(F)cc2)n1
>57,i,CCCOc1ccc(/C=c2\sc3nc(-c4ccco4)nn3c2=O)cc1OCC
i,i,CCn1c(SCC(N)=O)nnc1-c1cc2c(C)nn(-c3ccccc3)c2s1
·,i,CCCC(=O)n1nc(-c2ccc(OC)cc2)nc1N
>57,i,O=C(COC(=O)c1cccc(C(=O)OCC(=O)NC2CCCCC2)n1)NC1CCCCC1
>57,i,Clc1ccc(-c2nnc3sc(-c4ccccn4)nn23)cc1
·,i,Cc1sc2ncn3cnnc3c2c1C
·,i,CC(C)C[C@H](NC(=O)N1CCCCCC1)C(=O)N[C@H](Cc1cn(C)c2ccccc12)C(=O)N[C@H](Cc1ccccn1)C(=O)O
>57,i,COC(=O)C1=C(N)Oc2cc(C)n(Cc3cccnc3)c(=O)c2C1c1ccc(OC)c(OC)c1 (centres undefined)
>57,i,O=C(c1cn(CC(=O)N2CCCCC2)c2ccccc12)C1CC1
·,i,C[C@]12CCC3c4ccc(O)cc4CCC3[C@@H]1CCC2=O (some centres undefined)
>57,i,Cc1ccc(N(C(C)C(=O)N2CCCCC2)S(C)(=O)=O)cc1C (centres undefined)
·,i,Cc1cccc(Cl)c1NC[C@H](O)CN1CCN(C)CC1
·,i,C[C@H](CCC(=O)NN)[C@@H]1CC[C@@H]2[C@H]3CC[C@H]4C[C@@H](O)CC[C@@]4(C)[C@@H]3CC[C@]21C
·,i,C[C@@H](Cc1ccccc1)Nc1ncnc2c1ncn2[C@@H]1O[C@@H](CO)[C@H](O)[C@@H]1O
>57,i,CCN(CC)C(=O)CSc1nc2ncc(Cl)cc2[nH]1
>57,i,CCn1c(C)c(C(C)=O)c(N2CCN(c3ccccn3)CC2)nc1=S
·,i,CCc1cc(/C(Cc2ccc3ccccc3n2)=N\O)c(O)cc1O
>57,i,O=C(CSc1ncnc2c1oc1ccccc12)N1CCc2ccccc2C1
>57,i,Cn1c(=O)c2c(ncn2CC(=O)Nc2nc(-c3ccccc3Cl)cs2)n(C)c1=O
>57,i,CS(=O)(=O)N1CCN(c2ccccc2NC(=O)Cc2ccc(Cl)cc2)CC1
·,i,COc1ccc(CSc2nnnn2Cc2ccccc2)cc1OC
>57,i,O=C(CCCc1c[nH]c2ccccc12)N1CCCCCC1
>57,i,Cn1c(SCC2CCCCC2)nnc1-c1ccncc1
·,i,O=C(Oc1cccnc1)c1cc2ccccc2oc1=O
·,i,O=C(CSc1nc(O)cc(=O)n1-c1ccccc1)NCc1ccccc1
·,i,c1ccc(C(c2ccccc2)N2CC3(CCNCC3)C2)cc1
·,i,COc1ccc(C2CC(c3ccc(Cl)c(Cl)c3)Nc3nc(N)nn32)cc1 (centres undefined)
·,i,Clc1cc2c(c(CSC3=NCN(CC4CC4)CN3)c1)OCOC2
·,i,CCc1nc(SCC(=O)Nc2cccc(C(F)(F)F)c2)c2c(=O)n(C)c(=O)n(C)c2n1
>57,i,CCOC(=O)N1CCN(c2ccc(C(=O)c3cccc(F)c3)cc2)CC1
>57,i,CCCCCCn1cnc2c(c1=O)c1nc3ccccc3nc1n2Cc1cccs1
·,i,Cc1c(N=CC=Nc2c(C)n(C)n(-c3ccccc3)c2=O)c(=O)n(-c2ccccc2)n1C
>57,i,CC(=O)Nc1ccc(C(=O)CSc2nc3ccccc3n2CC(=O)N2CCCC2)cc1
·,i,CCOC(=O)N1CCN(C(=O)Cn2ncc3ccccc32)CC1
?,i,COc1ccccc1C(=O)Nc1ccccn1
>57,i,CCCN1C2=NS(=O)(=O)CCN2c2ccccc21
>57,i,O=C(CCN1CCOCC1)Nc1ccc2c(c1)CCC2
·,i,Cn1c(-n2c(CCN3C(=O)c4ccccc4C3=O)nc3ccccc3c2=O)nc2ccccc21
>57,i,COc1ccc(N2C(=O)C(Cl)=C(N3CCCC3)C2=O)cc1
·,i,O=C1CC(c2cccnc2)c2cc3c(cc2N1)OCO3 (centres undefined)
>57,i,Cc1ccc(S(=O)(=O)Nc2c(C)n(C)n(-c3ccccc3)c2=O)cc1C(=O)NCc1ccccn1
·,i,CCCc1nc(SCC(=O)Nc2cc(Cl)ccc2OC)c2c(=O)n(C)c(=O)n(C)c2n1
>57,i,CCOCC(=O)Nc1cccc(C(=O)OCC)c1
i,i,Cc1nn(-c2ccc(C(=O)O)cc2)c(N)c1-c1ccccc1
>57,i,Cc1cccc(C)c1NC(=O)N1CCC(n2cnc3ccccc32)CC1

Other compounds:
PK Bst,YjeE inh,canonical_smiles
>57,i,CCCS(=O)(=O)c1nnnn1-c1cccc(OC)c1
>57,i,Cc1cncn1CCc1nc2c3ccccc3nc(=S)n2[nH]1
·,i,CN(C)C(CNC(=O)c1cccs1)c1cccnc1 (centres undefined)
>57,i,CCc1sc(C(=O)N2CCN(S(C)(=O)=O)CC2)cc1Br
·,i,CCOc1ccccc1NC(=O)CSc1nc2c(c(=O)n1C)SC(C)C2 (centres undefined)
·,i,CCOc1cccc(-c2nc(C(N)=O)c3[nH]c(=O)n(-c4cccc(Cl)c4)c3n2)c1O
>57,i,FC(F)(F)c1nnc2sc(-c3ccccn3)nn12
>57,i,CC12CCC3(CO)COC(c4ccccc4O1)C2C3 (centres undefined)
